Assay outcomes from PubChem BioAssay.
gsp ag – gsp mutant agonism. gsp mutant cells, cAMP HTRF, 30 min; control for the full effect not named in the record. Potency, µM (titrated, usually from 76.9 µM), without a hit: at the top dose activation (cAMP increase), most hits filed as activators. 340,000 compounds, 0.13% hits. AID 624287; active = well fitted activation curve with a large enough effect; inconclusive = small, poorly fitted or top-dose-only effect, or another doubt; inactive = no such curve, though single readings can be large or run the other way; cell line not stated here;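 also: phosphodiesterase inhibitor Ro 20-1724 added with compounds to block cAMP breakdown; potency is read from the fitted curve at half-maximal effect; nearly all actives have a fitted effect of over 60% in size; about a fifth of the inactives were tested at one dose only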
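Cells in DMEM/10% FBS with G418 were pretreated with compounds in DMSO plus […] (300 uM stock) for 30 min at 37C. cAMP was measured by HTRF (cAMP-d2 plus anti-cAMP antibody-K) after 30 min at room temperature.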
ClpP mod – qHTS Assay for Activators of ClpP; 340,000 compounds, 1.9% hits; AID 651965, 2013; purified B. subtilis ClpP, FRET peptide cleavage, 20 min; Potency, µM (titrated, usually from 57.5 µM), inactives show top-dose activity change, negative = active; active = well fitted falling curve with a large enough effect; inconclusive = small, poorly fitted or top-dose-only effect; inactive = no such curve, though single readings can be large or run the other way; also: potency is read from the fitted curve at half-maximal effect; the source files actives as falling curves though it sought activators and does not explain the sign; nearly all actives have a fitted effect of over 65% in size; many hits overshoot -100%
Target sequence (P80244 whole entry, looked up): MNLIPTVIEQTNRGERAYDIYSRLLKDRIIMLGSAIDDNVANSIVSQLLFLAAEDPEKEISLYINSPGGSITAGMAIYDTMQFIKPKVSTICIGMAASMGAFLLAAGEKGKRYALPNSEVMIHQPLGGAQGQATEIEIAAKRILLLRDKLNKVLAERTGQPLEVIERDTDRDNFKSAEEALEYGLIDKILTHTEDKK
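ClpP 10 microg/mL final, pH 8 Tris/KCl buffer with BSA, glycerol, Tween-20; compound pinned in; FRET-FV substrate; RT 20 min; Ex320/Em430; ΔFRET vs ADEP 5.8 microM, DMSO, no enzyme.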
gsp antag – gsp mutant antagonism | gsp-mutant cells, cAMP HTRF, 30 min; control for the full effect not named in the record | Potency, µM (titrated, usually from 76.9 µM), without a hit: top-dose activity change, negative = inhibition, hits mostly inhibitors | 340,000 compounds, 0.4% hits | AID 624288; active = falling curve of any shape with a large fitted effect; inconclusive = falling curve, mostly with a smaller effect; inactive = flat or rising curve; cell line not stated here;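 also: intracellular cAMP measured with PDE inhibitor Ro 20-1724 present during compound exposure; potency is read from the fitted curve at half-maximal effect; % is scaled to controls: 0 for no effect and ±100 for the full control effect; nearly all actives have a fitted effect of over 65% in size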
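Measurement of cellular cAMP by homogeneous time-resolved fluorescence following a 30 min compound exposure at 37C. The PDE inhibitor […] was present throughout; the assay buffer was DPBS with 0.05% BSA and 0.005% Tween 20.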
Sfp PPTase inh – inhibitors of Bacillus subtilis Sfp phosphopantetheinyl transferase; Biochemical Sfp PPTase activity, qHTS; Potency, µM, for the others: max response, negative = inhibition, usual class: inhibitors; 310,000 compounds, 3.5% hits; AID 1490; active = well fitted inhibition curve with a large enough effect; inconclusive = small, poorly fitted or top-dose-only effect, or another doubt; inactive = no such curve, though single readings can be large or run the other way;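 also: the enzyme is Sfp with the accession as filed and its product quenches rhodamine fluorescence; potency is read from the fitted curve at half-maximal effect; 0% = enzyme reaction without inhibitor and -100% = no enzyme wells; top concentration of the series not given in the record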
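Fluorescence-quenching assay: 15 nM Sfp-PPTase preincubated 15 min at room temperature with compound, then 5 uM rhodamine-CoA and 12.5 uM BHQ-2-labelled YbbR peptide added. Fluorescence (ex 525/em 598 nm) read at start and after 30 min; difference gives rate.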
Menin MLL FP FL – inhibitors of human menin-MLL interaction, wild-type MLL peptide; Fluorescence polarization, fluorescein-MLL peptide displacement from menin; FP activity change, % at 61.4 µM; 290,000 tested, under 10 active; inconclusive = falling polarisation curve, or a change in total fluorescence; inactive = total fluorescence flat and polarisation flat or rising; no compound was filed as active; the % refers to the polarisation; negative = inhibition;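 also: % of control where 0% means no effect; inhibitors lower the polarisation; unlabelled MLL peptide was the positive control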
D2 agonist – agonists of human D2 dopamine receptor (beta-arrestin) | DiscoveRx PathHunter D2 beta-arrestin, luminescence, 90 min; 100% = 57 uM dopamine signal | activation, % (concentration not given with the values) | 360,000 compounds, 0.084% hits; in the data active = activation above about 40%; inconclusive = about 15% to 40%; inactive = below about 15%; also: the text of the record calls up to 30% inactive
Target sequence (P14416 whole entry, looked up): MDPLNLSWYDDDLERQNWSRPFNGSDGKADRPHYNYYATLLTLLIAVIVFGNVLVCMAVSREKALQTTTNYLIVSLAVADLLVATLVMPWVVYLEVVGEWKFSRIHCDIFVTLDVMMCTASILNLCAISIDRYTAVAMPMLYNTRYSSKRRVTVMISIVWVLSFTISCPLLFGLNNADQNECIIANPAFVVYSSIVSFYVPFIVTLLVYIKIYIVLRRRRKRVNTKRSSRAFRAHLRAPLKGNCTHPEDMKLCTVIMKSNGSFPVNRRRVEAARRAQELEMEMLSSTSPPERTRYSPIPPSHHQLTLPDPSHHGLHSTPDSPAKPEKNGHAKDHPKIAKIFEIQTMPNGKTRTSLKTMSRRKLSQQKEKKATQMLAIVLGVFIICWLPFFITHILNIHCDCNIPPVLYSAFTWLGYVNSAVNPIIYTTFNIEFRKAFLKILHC
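DiscoveRx PathHunter D2 beta-arrestin cells (2,100/well) attached overnight, then compound-stimulated 90 min at 37 C in HBSS/10 mM HEPES/0.1% Tween-20 buffer; beta-galactosidase complementation read by luminescence after 1 h at ambient temperature. Dopamine 57 uM final (EC100) as control.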
PINK1 modulator – modulators of PINK1 expression; Potency, µM (titrated, usually from 76.6 µM), for the others: at the top dose activation (PINK1 increase), most hits filed as activators; AID 624263; 410,000 compounds, 0.2% hits; PINK1 immunofluorescence, high-content cytometry, 24 h; active = well fitted activation curve with a large enough effect; inconclusive = small, poorly fitted or top-dose-only effect; inactive = flat fitted curve, though single readings scatter; cell line not stated here;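 also: potency is read from the fitted curve at half-maximal effect; % of control where 0% means no effect; nearly all actives have a fitted effect of over 65% in size; a mitochondrial uncoupler was the plate control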
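Decision-based qHTS: stable cells, 24 h exposure to five compound concentrations, CCCP as control. Fixed cells stained for PINK1 plus nuclear, mitochondrial and cell markers, cytometer read.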
* = called active by the depositor; ? = inconclusive; nt = no result given; & = joins results of further samples; [ ] = another dose, or the depositor's remark.

SMILES	gsp ag	ClpP mod	gsp antag	Sfp PPTase inh	Menin MLL FP FL	D2 agonist	PINK1 modulator
CC1(C)CC(=O)C2=C(C1)OC(c1ccc(O)cc1)C(C#N)=C2N (stereo unspecified)	10%[15.4 µM]	0.8%	-2%	-14%	5.3	-0.4	0.2%
CNC(=O)c1snnc1-c1ccccc1	4%	-3.8%	9%	-2%	1.0	-1.4	1.1%
COc1ccc([C@@H]2[C@@H]3C(=O)N(C(C)(C)C)C(=O)[C@@H]3[C@]3(Cc4ccccc4)C(=O)N(c4ccc(C)cc4)C(=O)N23)cc1	nt	-2.5%	4%	nt	nt	-3.4	1.1%
O=C(/C=C/c1ccc(F)cc1)Nc1ccc2[nH]c(=O)[nH]c2c1	-21%	-0.9%	-6%	4%	0.8	-3.4	-0.8%
O=C(O)CC1S/C(=N/N=C/c2ccc([N+](=O)[O-])cc2)N(c2ccc(O)cc2)C1=O (stereo unspecified)	1%[15.4 µM]	nt	-2%	1%	-3.9	0.2	1.0%
O=c1cnnc(N/N=C/C2CC=CCC2)[nH]1 (stereo unspecified)	24%	nt	-4%	45µM*	-2.5	3.6	7.8%
O=C(Cn1c(=O)oc2ccccc21)N(Cc1ccccc1)C1CCS(=O)(=O)C1 (stereo unspecified)	2%	0.8%	-20%	9%	2.5	-2.8	-0.3%
COc1ccc(-c2csc(CCn3nc(C)cc3C)n2)cc1OC	11%	-2.4%	3%	15%	1.7	0.4	2.5%
CCNc1nc2c(c(=O)n(Cc3ccccc3)c(=O)n2C)n1Cc1ccccc1	13%	4.0%	-18%	-16%	0.8	1.9	0.2%
Cc1ccc(S(=O)(=O)N(C)C)cc1NC(=O)COC(=O)/C=C/c1ccc2ccccc2n1	-28%	-9.0%	-4%	nt	nt	-6.3	?
Cc1ccc(S(=O)(=O)N(CC(=O)NN=C2CCN(C)CC2)c2ccc(C(C)C)cc2)cc1	11%[15.4 µM]	nt	nt	5%	5.3	-2.1	0.9%
CN(C)S(=O)(=O)c1cccc(NC(=O)CCNC(=O)Nc2ccccc2)c1	27%	-0.1%	9%	nt	nt	-0.8	0.0%
Cc1c(NC(=O)Nc2ccccc2Cl)c(=O)n(-c2ccccc2)n1C	10%	-3.3%	8%	3%	-1.5	1.0	-1.0%
Cc1noc(C)c1CSCC(=O)Nc1ccccc1N1CCCC1	5%[15.4 µM]	nt	-16%	nt	nt	-1.0	2.0%
COc1ccccc1N(CC(=O)Nc1ccc(S(=O)(=O)N2CCCCC2)cc1)S(C)(=O)=O	-13%	-0.7%	?	17%	-0.9	0.7	2.2%
Cc1ccc(NC(=O)COC(=O)c2cc(Cl)ccc2[N+](=O)[O-])cc1	1%	-6.7%	-22%	-5%	0.1	3.2	-1.3%
Cc1ccc(OCC2Cn3c(nc4c3c(=O)n(C)c(=O)n4C)O2)cc1 (stereo unspecified)	19%	-1.0%	6%	26%	0.2	-0.3	-0.4%
CCOC(=O)N/N=C1\CCS(=O)(=O)c2ccc(Cl)cc21	0%	-3.5%	4%	10%	1.7	-3.1	-0.8%
Cc1occc1-c1nnc(SCC(=O)c2c(N)n(Cc3ccccc3)c(=O)n(C)c2=O)n1C	-16%	-0.2%	-5%	5%	1.1	2.0	nt
c1ccc(-c2ccc3c(c2)NC(C2Nc4cc(-c5ccccc5)ccc4O2)O3)cc1 (stereo unspecified)	-32%[inhibitor]	-25%	-2%	6%	3.0	?	0.7%
O=C(c1cc(-c2cccs2)on1)N1CCN(C(c2ccccc2)c2ccccc2)CC1	1%	-3.6%	-11%	5%	5.1	-1.3	-1.7%
Cn1c(=O)c2sccc2n2c(CCCC(=O)Nc3ccc(F)cc3F)nnc12	76%[15.4 µM]	-12%	9%	6%	-0.6	-2.5	-0.4%&-1.2%
COc1ccc2[nH]c3c(c2c1)CCN1C(=O)C(CC(=O)NCc2cccc(C(F)(F)F)c2)C[C@H](C(=O)N2CCOCC2)[C@@]31C (stereo partly specified)	nt	-1.2%	-4%	nt	nt	0.5	0.9%
Cc1nc(C)c(C(=O)N/N=C/c2cn(C)c3ccccc23)s1	-22%	1.5%	14%	-3%	4.1	-2.2	11%
CC1(C(=O)Nc2ccc3nc[nH]c3c2)CCN1C(=O)c1ccccc1CCc1ccccc1 (stereo unspecified)	nt	0.4%	nt	nt	nt	-5.6	0.4%
COc1ccnc(Oc2ccc(Cl)cc2)c1C#N	14%	nt	8%	24%	0.0	5.3	-0.2%
COc1cc(C(=O)NCc2nnc(SCC(=O)Nc3nccs3)o2)cc(OC)c1OC	8%[15.4 µM]	nt	11%	16%	1.3	-1.6	-1.2%
COC(=O)c1ccccc1NC(=O)c1cccnc1	-55%	1.9%	-7%	11%	1.3	-3.1	-0.6%
O=Cc1ccc(N2CCCC2)o1	7%[15.4 µM]	nt	-1%	21%	1.8	-3.2	0.3%
CCCCNC(=O)COC(=O)c1cc2c(C)nn(-c3ccccc3)c2s1	-22%	?	-1%	-8%	-2.4	-1.3	0.8%
Cc1ccc(S(=O)(=O)Oc2ccc(/C=C3\N=C(c4cccc(C)c4)OC3=O)cc2)cc1	0%	-8.6%	7%	21%	-0.6	0.0	0.1%
Cc1ccc(C(N)=O)cc1S(=O)(=O)Nc1cccc(C)c1C	-25%	-0.8%	4%	3%	0.6	0.9	21%[38.3 µM]
Cc1c(Cl)cccc1NC(=O)CNC(=O)c1ccc(F)cc1	-7%	-0.5%	-6%	-8%	1.1	1.4	12%
COc1ccc(-n2c(CN3CCN(Cc4ccccc4)CC3)nc3ccc([N+](=O)[O-])cc3c2=O)c(OC)c1	-29%	-2.2%	-8%	-6%	-3.4	0.4	-1.4%
COc1ccc(NC(=O)C2(C)Cc3c(-c4cccc(NC(C)=O)c4)ccnc3O2)cn1 (stereo unspecified)	nt	-12%	nt	nt	nt	1.5	13%
C#CCSc1nc(=O)c2cccnc2n1-c1ccc(C)cc1	17%	nt	-9%	27%	1.5	5.1	-0.9%
Cc1ccc(S(=O)(=O)N2[C@@H](c3ccc(Br)cc3)C(C(=O)O)=CC[C@H]2c2ccc(Cl)cc2)cc1	nt	3.0%	-15%	nt	nt	0.4	-0.3%
Cc1cccc(C)c1NC(=O)CNc1ccccc1	-1%	-0.8%	-8%	8%	3.5	-0.1	4.5%
CCCNC(=O)CCn1cc(-c2ccc(OC)cc2)nc1-c1ccncc1	13%	0.3%	7%	27%	0.9	-1.0	-0.7%
CCOc1ccc(-c2nnc(SCC(=O)O)n2Cc2ccccc2)cc1	-28%	nt	6%	23%	1.9	-1.1	-0.4%
O=C(NNC(=O)C12CC3CC(CC(C3)C1)C2)c1csc(N2CCOCC2)n1	5%[15.4 µM]	-13%	-24%	nt	nt	0.5	1.2%
CCN(CC(=O)Nc1ccc(OC)cc1)C(=O)Cc1ccsc1	-37%[inhibitor]	-0.7%	3%	nt	nt	4.2	-1.5%
O=C(O)CSCC(=O)N1CCc2c([nH]c3ccccc23)C1C(F)(F)F (stereo unspecified)	-24%	nt	7%	4%	-0.4	-3.2	2.1%
O=S(=O)(c1ccc(F)cc1)N1CCN(S(=O)(=O)c2cccs2)CC1	-1%[15.4 µM]	-2.4%	6%	11%	nt	-3.6	0.0%
CCOc1ccc(C(C)=O)cc1N1C(=O)C2C3C=CC(C3=C(C)C)C2C1=O (stereo unspecified)	?	2.5%	-5%	45µM*	2.0	-2.5	4.9%
COc1cc(Cl)ccc1OCc1cc(C(=O)N(C)CCc2cnn(C)c2)no1	5%	0.6%	?	10%	0.9	-2.6	-0.3%
CCN(C(=O)COC(=O)c1cc(C)n(-c2ccc(F)cc2)c1C)C1CCS(=O)(=O)C1 (stereo unspecified)	4%	-13%	12%	4%	-0.4	-2.1	-1.5%
O=C(Nc1ccc(S(=O)(=O)Nc2ccccc2)cc1)c1ccc(CN2CCOCC2)cc1	-14%	0.3%	?	-1%	-3.9	7.3	0.7%
CCCCN(C=O)c1c(CC)nc2ccc(C(=O)N3CCCCC3)cn12	nt	-8.4%	nt	nt	nt	-0.7	1.5%
O=C(c1ccco1)N1CCN(c2ncnc3scc(-c4ccccc4)c23)CC1	8%	0.6%	-12%	-9%	0.8	-1.2	-3.0%
Cc1cc(C)c(S(=O)(=O)N2CCN(C(=O)c3cc(=O)[nH]c4ccccc34)CC2)c(C)c1	2%	-28%	-20%	nt	nt	5.3	-0.9%
O=C(CSCc1ccc(F)cc1)NCc1ccco1	1%	0.4%	11%	?	4.0	-3.5	32%[38.3 µM]
C/C(=N/NC(=O)c1ccc(C)s1)c1cccc(NC(=O)c2ccoc2C)c1	27%	0.0%	?	3%	nt	1.6	-0.5%
CC1CCC(NC(=O)CCS(=O)(=O)c2ccc3c(c2)NC(=O)C(C)S3)CC1 (stereo unspecified)	-20%	1.5%	-18%	10%	-1.7	0.4	-0.1%
CCC(C(=O)NCCC(C)C)N(Cc1ccccc1Cl)C(=O)c1snc(C(N)=O)c1N (stereo unspecified)	-11%[15.4 µM]	1.0%	-22%	7%	-1.4	-5.1	0.4%
O=C1OCCC1Sc1nc(-c2ccccc2)cs1 (stereo unspecified)	-9%	-4.7%	-4%	-1%	2.6	-1.7	-2.6%
N#Cc1c(Nc2ccccc2)sc(C(=O)c2ccc(F)cc2)c1N	4%	-0.7%	-22%	-15%	8.7	-4.2	4.8%
O=S(=O)(c1ccc(OCC(O)CN2CCCCC2)cc1)N1CCOCC1 (stereo unspecified)	1%	0.6%	11%	1%	6.0	-6.6	-1.8%
C[C@@H]1CN([C@@H](C)CO)C(=O)c2cc(NS(C)(=O)=O)ccc2O[C@@H]1CN(C)S(=O)(=O)c1ccccc1	nt	-3.7%	5%	nt	nt	0.4	0.0%
